Assay outcomes from PubChem BioAssay.
Tg IFNy HTS: T. gondii growth inhibition with IFN-gamma, primary screen, cell-based | Toxoplasma gondii growth in IFN-gamma-treated host cells; stronger effect = lower value; reference of the scale not given here | activity change, negative = inhibition, %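 (about 20 µM by stock and volumes)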 | hit rate 3.8% among 69,000;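 active = below -70%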;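 also: host cells are HeLa cells infected with Toxoplasma gondii; parasite growth read as luciferase light; one replicate is shown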
An asterisk follows results filed as active; i = inactive; & = joins results of further samples.

SMILES | Tg IFNy HTS
COCC1CC2(CCN(C(=O)C3=CCCC3)CC2)CN1C (stereo not drawn) | 41.6
CCOc1ccc(-c2nc(Cn3ccn4nc(-c5cccs5)cc4c3=O)c(C)o2)cc1 | -13.3
CCC(=O)N1C[C@H](O)COC[C@H]2O[C@H](CC(=O)NC)CC[C@@H]21 | -35.0
COC(=O)c1[nH]c2ccccc2c1NC(=O)CN1CCN(C/C=C/c2ccccc2)CC1 | -25.6
O=C(Cc1ccc(Br)cc1)c1ccc(O)cc1O | 143.1
Cc1nc(NCc2ccccc2OC(C)C)cc(-c2ccnc(N3CCOCC3)c2)n1 | -31.3
O=C(CN1CCC(Oc2ccccc2F)CC1)Nc1ccc2ncccc2c1 | -0.4
C[C@@H]1CN([C@H](C)CO)C(=O)Cc2cc(NS(=O)(=O)c3ccc(F)cc3)ccc2O[C@H]1CN(C)Cc1ccncc1 | 70.0
C[C@@H]1CC=CC[C@@H](c2cccc(Cl)c2)NC(=O)[C@@H](Cc2ccccc2)N(C)C(=O)c2ccccc2O1 (mixture of isomers) | -63.1
COc1ccc(S(=O)(=O)N(C)C[C@H]2Oc3ccc(NC(=O)Cc4cn(C)c5ccccc45)cc3C(=O)N([C@@H](C)CO)C[C@@H]2C)cc1 | -27.9
CO[C@@H]1CN(C)C(=O)c2ccc(NC(=O)NC(C)C)cc2OC[C@H](C)N(Cc2ccc(-c3ccccn3)cc2)C[C@@H]1C | 18.1
CN(C)CCCN1C(=O)C2CCc3[nH]c4ccccc4c3C2C1=O (stereo not drawn) | 5.6
Cc1cccc(C)c1NC(=O)c1ccccc1NC(=O)C(C)n1ccnc1C (stereo not drawn) | 5.0
O=C(O)Cc1csc(-c2ccc(Cl)cc2)n1 | 23.3
COc1cccc(NC(=O)N2CC3(C2)[C@@H](c2ccccc2)[C@H](CO)N3C(C)=O)c1 | 31.2
Cc1ccc(NC(=O)CN2C(=O)CCc3cc(S(=O)(=O)N4CCCCC4C)ccc32)cc1C (stereo not drawn) | -83.5*
FC(F)(F)c1ccnc(SCn2c(=S)sc3ccccc32)n1 | -62.4
COCC(=O)NCCn1nc(-c2ccc(F)cc2)n(-c2ccc(C)cn2)c1=O | -33.6
CC(C)CN1C[C@]23CN(C(=O)c4cn(C)c5ccccc45)C[C@@H](C[C@H]2S1(=O)=O)O3 | -5.4
CCn1cnnc1CCNc1nc(C)nc2c1cnn2C | 9.5
CC1CCN(S(=O)(=O)c2ccc3c(c2)CCC(=O)N3CC(=O)N2CCc3ccccc32)CC1 | -17.5
Cc1ccccc1S(=O)(=O)N1C[C@H]2C[C@H](C(=O)NC3CCC3)[C@@H](C1)O2 | 1.1
O=C(c1ccc2c(c1)OCO2)N1C[C@@H]2[C@H](c3ccccc31)[C@H](CO)N2Cc1cccnc1 | -4.1
Nc1sc2c(c1C(=O)NCc1ccccc1)CCCC2 | -7.4
c1ccc(Cn2cc3c(n2)C(CNCc2ccco2)OCC3)nc1 (stereo not drawn) | -20.1

Sorted by formula weight (low to high): some entries from above.
SMILES | Tg IFNy HTS
CCC(=O)N1C[C@H](O)COC[C@H]2O[C@H](CC(=O)NC)CC[C@@H]21 | -35.0
FC(F)(F)c1ccnc(SCn2c(=S)sc3ccccc32)n1 | -62.4
Cc1cccc(C)c1NC(=O)c1ccccc1NC(=O)C(C)n1ccnc1C (stereo not drawn) | 5.0
CC(C)CN1C[C@]23CN(C(=O)c4cn(C)c5ccccc45)C[C@@H](C[C@H]2S1(=O)=O)O3 | -5.4
O=C(c1ccc2c(c1)OCO2)N1C[C@@H]2[C@H](c3ccccc31)[C@H](CO)N2Cc1cccnc1 | -4.1
COc1ccc(S(=O)(=O)N(C)C[C@H]2Oc3ccc(NC(=O)Cc4cn(C)c5ccccc45)cc3C(=O)N([C@@H](C)CO)C[C@@H]2C)cc1 | -27.9

Next part
SMILES | Tg IFNy HTS
Cc1ccccc1NC(=O)CN1CCC2(CC1)N=C(c1cccc(Cl)c1)C(=O)N2 | -8.6
CC(C)n1cnc2c(NCC3CC3)nc(C3CCN(C(=O)c4ccccc4)CC3)cc21 | -81.7*
Clc1ccc(-n2cnnc2C2CCNCC2)cc1 | -4.5
C=CCN1C(=O)CCCC12CCCN(C(=O)c1cccc3cccnc13)C2 (stereo not drawn) | 89.4
c1cncc(-c2nc(CCNCc3nc(-c4ccco4)no3)cs2)c1 | 17.4
COc1cccc(C(=O)Nc2ccc3c(c2)OC[C@H](C)N(CCc2ccccc2)C[C@H](C)[C@H](OC)CN(C)C3=O)c1 | 193.8
Cc1cc(CC(=O)NC(CC(C)C)c2nnc3n2CCNCC3)on1 (stereo not drawn) | -0.3
OC1CCCN(c2ccnc(N3CC(c4cccnc4)C3)n2)C1 (stereo not drawn) | 1.5
CC(=O)N(CC(O)CO)c1c(I)c(C(=O)NCCO)c(I)c(C(=O)NCC(O)CO)c1I (stereo not drawn) | 11.4
CN(C)C(=O)c1cc2c(s1)CCN2C(=O)C1CC1 | 60.4
O=c1[nH]c2ccccc2c(O)c1-c1nc(-c2ccc(F)cc2)no1 | 0.7
COc1ccc2c3c([nH]c2c1)[C@H](CO)N(S(C)(=O)=O)CC31CCN(CC2CCCC2)CC1 | 129.6
COc1ccc2c(c1)NC1(CCN(S(=O)(=O)c3ccc(C4CCCCC4)cc3)CC1)c1cccn1-2 | -65.7
O=C(Nc1cccc(Cl)c1)c1c(O)c2cccnc2n(-c2ccccc2)c1=O | 44.3
Cc1ccc(CN2CC[C@@H](OCC3CC3)[C@H]2Cc2ccccc2)o1 | -62.7
Cc1nc(-c2cccc(F)c2)sc1CCNC(=O)C(C)(C)C | 480.4
CCc1nc(N)sc1C(=O)N1CCCN(c2ccncc2C)CC1 | -4.4
CO[C@H]1CC[C@H]2CCOc3c(C#N)cccc3C(=O)N(C)C[C@@H](OC)[C@@H](C)C(=O)N(C)C[C@H]1O2 | 1.9
Cc1ccc(S(=O)(=O)N2CC[C@@H]3[C@H](CO)Nc4ccc(-c5cccc(C(=O)N(C)C)c5)cc4[C@@H]32)cc1 | -56.3
Cc1nc(CN2CCN(C(=O)CC3COCCN3)CC2)cs1 (stereo not drawn) | 5.7
CN(C)C(=O)c1cc2c(s1)CCN2S(C)(=O)=O | 110.4
CCOc1cc2c(cc1CN(CCN1CCOCC1)Cc1cccnc1)CCC2 | -36.6
COc1ccc(C(NC(=O)C2Oc3ccccc3O2)c2ccncc2)cc1 (stereo not drawn) | 47.2
CCC(=O)Nc1ccc2c(c1)OC[C@H](C)N(Cc1ccccc1)C[C@H](C)[C@H](OC)CN(C)C2=O | 69.6
O=C(Nc1ccccc1Cl)N1C[C@H]2[C@@H](c3ccccc31)[C@H](CO)N2C(=O)c1cccnc1 | -3.7

A section from further up, as a working copy:
SMILES | Tg IFNy HTS
Cc1ccccc1NC(=O)CN1CCC2(CC1)N=C(c1cccc(Cl)c1)C(=O)N2 | -8.6
CC(C)n1cnc2c(NCC3CC3)nc(C3CCN(C(=O)c4ccccc4)CC3)cc21 | -81.7*
Clc1ccc(-n2cnnc2C2CCNCC2)cc1 | -4.5
C=CCN1C(=O)CCCC12CCCN(C(=O)c1cccc3cccnc13)C2 (stereo not drawn) | 89.4

The list continues.
SMILES | Tg IFNy HTS
COc1cc(-c2c(-c3ccccc3)ncn2CCC2CCCN2C)ccc1O (stereo not drawn) | -1.1
COc1ccc(N(C)c2ccc3ccc(C(=O)Cc4ccccn4)cn23)cc1 | -1.3
O=S(=O)(N1CCCC1)N1CCCCC1CCc1ccccc1 (stereo not drawn) | -5.8
Cc1ccc(C(=O)N2CC3CCC2C3OCCN(C)C)cn1 (stereo not drawn) | 4.5
CC(CN1CCc2ccccc2C1)NC(=O)c1cn(Cc2ccccc2F)nn1 (stereo not drawn) | -2.8
Cc1cccc(C(=O)N2CCC3(CC2)CN(c2ncccn2)CC32CCN(C)C2=O)n1 (stereo not drawn) | 13.7
COC(=O)C1=CN(Cc2cccs2)C=C(C(=O)OC)C1c1cccc(Cl)c1 | 11.7
COc1ccc(CN2CCC3(CCCN3S(=O)(=O)c3ccccc3)CC2)cc1F | 0.8
O=C(Oc1ccc2c(=O)c(Cl)coc2c1)c1cccnc1 | -0.8
O=C(c1ccco1)N1CCCn2c(nc(CN3CCCC3)cc2=O)C1 | 1.0
CCn1cc(Cn2cnc(-c3ccccc3)c2/C(C)=C/c2ccco2)cn1 | -1.1
CCN(Cc1cnn(C)c1)C(=O)CC(=O)Nc1cccc(Cl)c1C | 1.6
COc1ccc(CNC(=O)c2cc3c(=O)n4ccccc4nc3n(Cc3cccnc3)c2=N)cc1 | -15.9
COc1ccc(C(C)C)cc1-c1c(-c2ccccc2)ncn1CCC(N)=O | -4.3
CCC(=O)N1CCc2c([nH]c3ccc(Cl)cc23)C12C(=O)N(C)c1ccccc12 (stereo not drawn) | 24.0
COc1ccc(Cl)cc1C(=O)Nc1ccc2c(c1)CCC(=O)N2 | 12.6
CNc1ncc(CN(C)C(=O)c2ccc(CSC)o2)cn1 | 2.9
O=S(=O)(c1ccc2c(c1)CCCC2)N1CCC2(CC1)NCCN=C2NCc1ccc(F)cc1 | -16.2
COc1ccc([C@@]2(O)CC[C@@H]3CN(C(=O)Cn4ccc(=O)[nH]c4=O)C[C@@H]32)cc1 | 31.7
CN(C)C(=O)c1ccc(-c2ccc3c(c2)[C@@H]2[C@@H](CCN2Cc2ccncc2)[C@@H](CO)N3)cc1 | 27.2
COc1ccccc1OCC(=O)O | 25.4
O=c1ccc2cc(S(=O)(=O)NC3CCN(Cc4ccccc4)CC3)ccc2[nH]1 | -26.3
C=CCOCC1c2nnn(CC)c2CCN1C(=O)c1cscn1 (stereo not drawn) | -26.8
CN(C)C(=O)N1CCC2(Cc3ccccc3NC2=O)C1 (stereo not drawn) | 4.7
CCOc1ccccc1NC(=O)c1cncc(NS(=O)(=O)c2ccc(C)cc2C)c1 | 40.1

The list continues:
SMILES | Tg IFNy HTS
CCS(=O)(=O)NCCc1csc(-c2ccc(Cl)cc2)n1 | 17.6
CC(C)(C)N(Cc1ccco1)Cc1nc(-c2ccco2)no1 | 0.3
C[C@H]1CN([C@@H](C)CO)C(=O)Cc2cc(N(C)C)ccc2O[C@H]1CN(C)Cc1ccc(-c2ccccc2)cc1 | -64.5
NS(=O)(=O)c1ccc(CNC(=O)c2cc(-c3ccccc3)nc3ccccc23)cc1 | -18.5
Cc1nnc(NC(=O)CCSCc2ccc(Cl)c(Cl)c2)s1 | -44.1
COc1ccc(NC(=O)C2CCCN2C(=O)OC(C)(C)C)cc1 (stereo not drawn) | 15.5
Cn1cc(-c2cc3n(n2)CCC(=O)N3CCCC(=O)N2CCN(c3ccccn3)CC2)c2ccccc21 | 101.1
COCCN(Cc1ccc2ccccc2n1)Cc1ccccc1F | 107.3
S=C(c1ccccc1)N1CCN(Cc2ccccc2)CC1 | -5.6
CN1C(=O)c2cc(NC(=O)c3cccc(Cl)c3)ccc2OC[C@@H]2O[C@H](CC(=O)NC3CCCCC3)CC[C@@H]21 | -41.4
FC(F)(F)C(OCc1n[nH]c(Cc2ccccc2)n1)c1ccccc1 (stereo not drawn) | -2.3
Cc1ccc(NC(=O)c2ccoc2)cc1NCC#N | 45.0
CCOc1ncccc1C(=O)N1CCCn2nc(C(=O)NC3CC3)cc2C1 | -51.1
CC(=O)Nc1cccc2c1C(=O)N(c1ccc(OC(C)=O)cc1)C2=O | -63.0
CCOc1ccc(C(=O)NC(C)C2COc3ccccc3O2)cc1 (stereo not drawn) | 42.6
COc1cc(F)ccc1-c1cnc(N)cn1 | -1.8
Cc1ccsc1[C@@H]1CCN(Cc2ccnn2-c2ccccc2)C[C@H]1O | -62.6
CC(C)n1ccc(-c2cc(C(=O)N3CCC(N(C)C)CC3)c3ccccn23)n1 | -47.2
COc1ccc(S(=O)(=O)N2CCc3nc(-c4ccc(C)cc4)sc3C2)cc1OC | 16.5
CCN1C(=O)N(C2Cc3ccccc3C2)C(=O)C12CCN(Cc1ccc(C#CC(C)(C)O)cc1)CC2 | -4.8
CCOc1ccccc1-c1nc(CSc2nc3c(=O)[nH]cnc3n2-c2ccccc2)c(C)o1 | 21.2
CSc1ncccc1C(=O)Nc1ccc2c(c1)CCC(=O)N2 | 6.6
C[C@@H]1CCCCO[C@H](CN(C)S(=O)(=O)c2ccc(F)cc2)[C@H](C)CN([C@H](C)CO)C(=O)c2cc(N(C)C)ccc2O1 | i
CCn1c(CC2CCN(C(=O)c3c(C)cc(C)n(C)c3=O)CC2)n[nH]c1=O | 7.2
COc1ccc(CCN(C)CCCC(C#N)(c2cc(OC)c(OC)c(OC)c2)C(C)C)cc1OC (stereo not drawn) | -47.3&20.5

Reprinted at random: 2 entries already listed
SMILES | Tg IFNy HTS
Cc1nc(-c2cccc(F)c2)sc1CCNC(=O)C(C)(C)C | 480.4
CN(C)C(=O)N1CCC2(Cc3ccccc3NC2=O)C1 (stereo not drawn) | 4.7

Additional results
SMILES | Tg IFNy HTS
O=C(CC1COCCN1)NCc1cc(-c2ccccn2)no1 (stereo not drawn) | -2.6
COc1ccc(-c2nc(C)c(CCNC(=O)C(=O)Nc3ccc(F)cc3F)s2)cc1 | 115.6
COc1cc2c(cc1OC)CN(Cc1ccc(C)s1)CC2 | 29.4
O=C(CC1COCCN1)NCCSc1ccccn1 (stereo not drawn) | 26.7
C[C@@H]1CCCCO[C@H](CN(C)Cc2ccc(C(=O)O)cc2)[C@H](C)CN([C@@H](C)CO)C(=O)c2cc(N(C)C)ccc2O1 | 364.6
O=C1CCC(=O)N1CN(Cc1ccccc1)Cc1ccccc1 | -42.5
Cc1nccn1Cc1cccc(C(=O)N(Cc2ccncc2)C2CCCCC2)c1 | 4.7
CCCNC(=O)Nc1ccc2c(c1)OC[C@H](C)N(C(=O)C1CCOCC1)C[C@@H](C)[C@H](OC)CN(C)C2=O | -13.4
COc1cccc(N(Cc2nc(-c3ccc(OC(C)C)cc3)oc2C)S(=O)(=O)c2ccccc2)c1 | -35.8
O=C1OCc2ccc(NS(=O)(=O)NCc3ccccc3)cc21 | 11.0
CC(=O)N1CCC(c2cc3c(ncn3C(C)C)c(-c3ccccc3)n2)CC1 | -105.6*
O=C(c1ccc(F)c(F)c1)N1CCN(S(=O)(=O)c2cc3c4c(c2)CCC(=O)N4CCC3)CC1 | -6.6

A portion of the library. The share of hits here may be higher or lower than overall.
